# From PubChem
# VDR inhibitor – vitamin D3 receptor (human) inhibition | actives 0.93% (n = 400,000) | AID 504847 | VDR-SRC2-3 peptide fluorescence polarization, 2 h | P11473 | Potency, µM, without a hit: max response, negative = inhibition, hits mostly inhibitors; active = well fitted inhibition curve with a large enough effect; inconclusive = small, poorly fitted or top-dose-only effect, or another doubt; inactive = no such curve, though single readings can be large or run the other way; also: series mostly up to about 120 µM
# Target sequence (P11473 whole entry, looked up): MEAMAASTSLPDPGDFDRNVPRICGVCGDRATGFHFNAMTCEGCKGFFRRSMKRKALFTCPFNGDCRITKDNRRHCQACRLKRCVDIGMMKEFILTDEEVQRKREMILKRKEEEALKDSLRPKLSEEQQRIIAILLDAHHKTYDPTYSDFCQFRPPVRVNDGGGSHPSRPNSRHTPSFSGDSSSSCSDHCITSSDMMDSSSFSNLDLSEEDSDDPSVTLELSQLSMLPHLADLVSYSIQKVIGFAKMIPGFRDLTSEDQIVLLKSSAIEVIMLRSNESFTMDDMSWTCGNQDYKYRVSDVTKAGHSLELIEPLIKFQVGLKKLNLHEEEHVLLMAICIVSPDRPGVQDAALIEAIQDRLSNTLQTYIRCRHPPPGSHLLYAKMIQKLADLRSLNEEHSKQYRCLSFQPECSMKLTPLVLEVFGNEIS
#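 Signal is fluorescence polarization, reporting how far test compounds block the interaction of VDR with the SRC2-3 coregulator peptide after a 2 h room-temperature incubation.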
# Active calls of the source: *; ? = inconclusive; & = joins results of further samples. % is scaled to controls: 0 for no effect and ±100 for the full control effect; potency is read from the fitted curve at half-maximal effect.
SMILES,VDR inhibitor
O=C(CCNS(=O)(=O)c1ccc2c(c1)CCN2C(=O)C1CC1)Nc1ccc(OC(F)(F)F)cc1,14%
COc1ccc(OCCC(=O)OCC(=O)NCc2ccco2)cc1,-28%
O=C(Nc1cccc(Cl)c1)c1ccccc1NC(=O)C1CCCCC1C(=O)O (configuration not stated),0%
COCCCNC(=O)Cn1c(=O)oc2cc(S(=O)(=O)N3CC(C)CC(C)C3)ccc21 (configuration not stated),1%
O=S1(=O)N=C(Nc2ccc(N3CCOCC3)cc2)c2ccccc21,10%
CCN(CC)C(=S)NC(=O)c1ccc(Cl)cc1Cl,-15%
COc1ccc(Nc2nc(-c3ccccc3)c(C(=O)Nc3cccnc3)s2)cc1,-9%
CN(C)C1=NCCN1CCCC1CCCC1,-20%
CCOc1cccc(NC(=O)c2ccc(S(=O)(=O)N(C)C)cc2)c1,2%
O=C(COc1ccc(F)cc1)Nc1ccccc1N1CCOCC1,-14%
COc1ccc(C(=O)C/C(=C\C(=O)c2ccc(C)cc2)c2ccccc2)cc1,5%
CCN(CC)S(=O)(=O)c1ccc(NS(=O)(=O)c2ccc(OC)c([N+](=O)[O-])c2)cc1,-6%
COc1cccc(CNC(=O)CCNS(=O)(=O)c2ccc3c(c2)oc(=O)n3C)c1,-14%&-23%
Cc1ccc(C(c2c(C)nn(-c3ccccc3)c2N)c2c(C)nn(-c3ccccc3)c2N)cc1,7%
COc1ccc(C(C)C)cc1S(=O)(=O)Nc1ccc(Cl)cn1,-3%
O=C(O)C(=O)/C(=C\c1ccccc1)c1ccc2ccccc2n1,13%
CCN1CCN(c2ccc(S(=O)(=O)N3CCCCC3)cc2NC(=O)COc2ccc(Cl)cc2)CC1,-16%
COc1cccc(CNCc2ccc(C(=O)O)cc2)c1OC,5%
CCC(C)C(NC(N)=O)C(=O)Nc1ccc(C(=O)OC)cc1 (configuration not stated),-13%
O=C(OCC(=O)N1CCCCC1)c1c[nH]c(=O)[nH]c1=O,-8%
CC(C)C12CN3CC(C(C)C)(CN(C1)C3c1ccccc1)C2O (configuration not stated),31%
CCOC(=O)Cc1nnc(Nc2ccc(C)cc2C)c2ccccc12,-2%
C=C(C)C(O)CC/C(C)=C/Cc1c(O)ccc(C(=O)/C=C/c2ccc(O)cc2)c1O (configuration not stated),20%
Cc1ccc(C(=O)N/C(=C/c2ccc(F)cc2)C(=O)NCc2ccncc2)cc1,-10%
COc1ccc2[nH]c3c(c2c1)CCN1C(=O)C(CC(=O)NCCCN(C)C)C[C@H](C(=O)N(C(C)C)C(C)C)[C@@]31C (some centres not stated),20%
CCOC(=O)C1(Cc2ccccc2)CCCN(C(=O)c2cnn(CC)c2)C1 (configuration not stated),-18%
COc1ccc2c(Sc3ccc(Cl)cc3)c(C(=O)N3CCCCC3)[nH]c2c1,4%
COc1ccc(S(=O)(=O)N2CCN(CC(=O)NC3CCCC3)CC2)cc1,-10%
COc1ccc(Cl)cc1NC(=O)CCCN1C(=O)CCC1=O,15%
CCOC(=O)c1ccc(NC(=S)N(CCCN2CCCC2)Cc2cccs2)cc1,-3%
Cc1cc(C(=O)CN2C(=O)C(=O)N(CC(C)C)C2=O)c(C)n1-c1ccccc1F,2%
O=C(COCc1nc2ccccc2c(=O)[nH]1)NCC1CCCCC1,10%
Cc1cc(OCC(=O)NCc2cccnc2)c2c(C)c(Cc3ccccc3)c(=O)oc2c1,13%
Cc1cccc(OCCSCc2nc3ccccc3[nH]2)c1,3%
Cc1cc(C)c(OCCCON2C(=O)CCC2=O)c(Br)c1,-5%
O=C(Cc1ccc(Cl)cc1)Nc1ccc(Br)cn1,20%
CCCN1C(=O)c2cc(C(=O)Nc3cccc(C(C)=O)c3)ccc2C1Nc1cccc(C(C)=O)c1 (configuration not stated),-19%
C=C(C)c1cccc(C(C)(C)NC(=O)Nc2ncccn2)c1,9%
NC(=Nc1ccccc1)N(c1ccccc1)c1ccccc1,9%
CCCn1c(SCC(=O)NNC(=O)c2ccccc2)nnc1-c1cccnc1,-4%
O=C(N/N=C/c1c(O)n(-c2ccc(Cl)cn2)c(=O)c2ccccc12)c1ccncc1,-14%
CN(C)CCN(Cc1ccccc1)C(=O)C1CCN(c2ncnc3c2nc2n3CCCCC2)CC1,23%
O=C(Nc1cccc(Cl)c1)/C(=C\c1cccnc1)NC(=O)c1ccco1,3%
Cc1ccccc1Cn1c(=O)n(CCC(=O)NCc2ccc3c(c2)OCO3)c(=O)c2ccccc21,9%
COc1cc(C(=O)N2C[C@@H]3CCC[C@H]2C3)ccc1OC1CCN(C(C)=O)CC1,-9%
Cc1ccnc2nc(C(=O)OCC(=O)N(CC(C)C)CC(C)C)nn12,16%
COc1ccc(-c2nc3cnccn3c2Nc2ccc(C)cc2)cc1,-17%
COc1cccc(N2CC(NC(=O)/C=C\c3ccc(OC)c(OC)c3)CC2=O)c1 (configuration not stated),7%
COc1ccc(C)cc1NC(=O)CN1c2ccccc2S(=O)(=O)c2ccccc21,-3%
COCCn1c(SCC(=O)N2CCCCC2)nc2c([nH]c3ccccc32)c1=O,-2%
CCCCNc1sc(S(=O)(=O)CCC)nc1S(=O)(=O)c1ccc(C)cc1,11%
CCCCCCSc1cc(-c2nc3cnccn3c2NCc2ccccc2)ccc1OC,21%
Cc1ccc(CNC(=O)CCCN2C(=O)COc3ccc(C)cc32)cc1,12%
CSc1nc2ncc(-c3ccsc3)c(N)n2n1,6%
COC(=O)[C@H](C)NC(=O)Nc1ccc(C)c(C)c1,-2%
CCN(CC)CCCN1CC(=O)N2[C@@H](Cc3c([nH]c4ccccc34)C2(C)C)C1=O,5%
Cc1cccc(N2C(=O)C3C4CC(=O)C(c5ccccc54)C3C2=O)c1C (configuration not stated),-8%
N#CCOc1coc(CN2CCN(c3cccc(Cl)c3)CC2)cc1=O,-1%
COc1ccc(-c2cc(C(=O)Nc3cc(OC)cc(C(=O)Nc4cccc(C(F)(F)F)c4)c3)[nH]n2)cc1,-2%
Cc1ccc(NC(=O)C2CCCCC2)cc1C,-8%

# For reference, some entries already given:
SMILES,VDR inhibitor
C=C(C)C(O)CC/C(C)=C/Cc1c(O)ccc(C(=O)/C=C/c2ccc(O)cc2)c1O (configuration not stated),20%
Cc1ccc(C(=O)N/C(=C/c2ccc(F)cc2)C(=O)NCc2ccncc2)cc1,-10%
COc1ccc2[nH]c3c(c2c1)CCN1C(=O)C(CC(=O)NCCCN(C)C)C[C@H](C(=O)N(C(C)C)C(C)C)[C@@]31C (some centres not stated),20%
CCOC(=O)C1(Cc2ccccc2)CCCN(C(=O)c2cnn(CC)c2)C1 (configuration not stated),-18%
COc1ccc2c(Sc3ccc(Cl)cc3)c(C(=O)N3CCCCC3)[nH]c2c1,4%
COc1ccc(S(=O)(=O)N2CCN(CC(=O)NC3CCCC3)CC2)cc1,-10%
COc1ccc(Cl)cc1NC(=O)CCCN1C(=O)CCC1=O,15%
CCOC(=O)c1ccc(NC(=S)N(CCCN2CCCC2)Cc2cccs2)cc1,-3%
Cc1cc(C(=O)CN2C(=O)C(=O)N(CC(C)C)C2=O)c(C)n1-c1ccccc1F,2%
O=C(COCc1nc2ccccc2c(=O)[nH]1)NCC1CCCCC1,10%
Cc1cc(OCC(=O)NCc2cccnc2)c2c(C)c(Cc3ccccc3)c(=O)oc2c1,13%
Cc1cccc(OCCSCc2nc3ccccc3[nH]2)c1,3%
Cc1cc(C)c(OCCCON2C(=O)CCC2=O)c(Br)c1,-5%
O=C(Cc1ccc(Cl)cc1)Nc1ccc(Br)cn1,20%
CCCN1C(=O)c2cc(C(=O)Nc3cccc(C(C)=O)c3)ccc2C1Nc1cccc(C(C)=O)c1 (configuration not stated),-19%
C=C(C)c1cccc(C(C)(C)NC(=O)Nc2ncccn2)c1,9%

# (list continues)
SMILES,VDR inhibitor
CC(C)CCCN1C(Nc2ccccc2)=NC[C@@H]1C,-10%
[N-]=[N+]=NCCN1CCN(CCc2ccccc2)CCC1=O,-22%
Cc1ccc(S(=O)(=O)NCc2ccc(/C=C(/C#N)C(=O)NCc3ccccc3)o2)cc1,-7%
c1ccc(C2=Nn3c(nnc3-c3n[nH]c4c3CCC4)SC2)cc1,-12%
c1ccc2nc(-c3nc4ccccc4[nH]3)ccc2c1,9%
COc1ccc2cc(C(=O)C3CCCN(C(=O)CCc4cnn(C)c4)C3)ccc2c1 (configuration not stated),-2%
O=C(COc1ccccc1F)Nc1ccc2nc(SCC(=O)N3CCc4ccccc43)sc2c1,9%
COc1cccc(NC2=CC(c3ccc(C(C)C)cc3)N(c3cccc(OC)c3)C2=O)c1 (configuration not stated),20µM*
CCSc1nc(-c2ccc(Cl)cc2)nc2c1Cc1c(CO)cnc(C)c1O2,-5%
O=C(O)c1cc(/C=N\O)ccc1OCc1ccccc1,5%
O=C(CNC1CCCCCC1)Nc1ccccc1N1CCOCC1,7%
CN(C)c1ccc(/C=C(\C#N)C(=O)c2ccccc2)cc1,-13%
Cc1nnc(SCC(=O)NCc2ccco2)n1-c1ccccc1,13%
CCc1oc(C(=O)O)cc1CN(CC)CC,-4%
COc1ccccc1CNC(=O)C1CCN(S(=O)(=O)c2ccc3c(c2)CC(C)N3C(C)=O)CC1 (configuration not stated),-12%
CC(C)N(C(=O)CN(C#N)c1nc(N(C)C)nc(N(C)C)n1)c1ccccc1,-3%
Nc1c(N(CCC2=CCCCC2)C(=O)COc2ccc(F)cc2Cl)c(=O)[nH]c(=O)n1Cc1ccccc1,-2%
COc1cccc(CN(C)C(=O)c2ccc(Cl)c(S(=O)(=O)N3CCCCCC3)c2)c1OC,-5%
O=C(/C=C/c1ccccc1)COC(=O)c1ccccc1,10µM*
O=C(NCCc1ccccc1)c1ccc2c(c1)S(=O)(=O)c1ccccc1C2=O,0%
COc1ccc(OC)c(C2C(C(C)=O)=C(O)C(=O)N2c2ccc(O)cc2)c1 (configuration not stated),20%
COc1ccc(/C=C/C(=O)NCC(=O)N/N=C/c2ccc(OC)cc2)cc1,-5%
O=C(COc1ccc(Br)cc1)NNC(=O)c1ccc(-n2cncn2)c([N+](=O)[O-])c1,1%
COc1ccc(C2OC3=C(Nc4cc(C)c(C)cc4N3)C2=O)cc1 (configuration not stated),-9%
CCOc1ccc(-c2nnc(SCC(=O)NC3CCCCC3)nc2-c2ccc(OCC)cc2)cc1,9%
Cc1ccc(NC(=O)CN2C(=O)C3(SCC(=O)N3c3ccc(F)c(F)c3)c3ccccc32)c(C)c1 (configuration not stated),0%
CC(C)Nc1nc(NC(N)=S)nc(NC(C)C)n1,-12%
COc1cc(CC(=O)OCC(=O)NC(C)c2ccccc2)cc(OC)c1OC (configuration not stated),15%
Cc1c(C(=O)N(C)C2CC(C)(C)NC(C)(C)C2)oc2c(F)cccc12,-7%
CCOC(=O)NC(=O)CSc1nnnn1-c1ccc(Cl)cc1,-10%
Cc1ccc(NC(=O)Cn2c(-c3cncs3)nc3ccccc32)cc1Br,13%
CN(CC(=O)Nc1ccccc1C(F)(F)F)C(=O)c1cc([N+](=O)[O-])ccc1N1CCOCC1,10%
CCn1nc(C)c(NC(=O)/C=C/c2ccc(OC)c(COc3ccc(Br)cc3)c2)c1C,23%
Cc1c(C(=O)Nc2ccncc2)oc2ccccc12,6%
Brc1c(CSc2nncn2-c2ccccc2)nc2sccn12,8%
O=S(=O)(Nc1cccc(-c2ccc(N3CCCCC3)nn2)c1)c1ccc(F)cc1F,-11%
CCCC(=O)Nc1ccc(C(=O)NNC(=S)NC(=O)c2cccs2)cc1,15%
CCC(C)NC(=O)C(NS(=O)(=O)c1cccc2nsnc12)c1ccccc1 (configuration not stated),14%
COc1ccc(-c2cc(C(F)(F)F)nc(SCCC(=O)Nc3ccc(NC(C)=O)cc3)n2)cc1,-15%
CC(C)OC(=O)/C(C#N)=C/c1ccc(-c2ccc(SC(F)F)cc2)o1,-10%
Cc1ccc(S(=O)(=O)CCC(=O)Nc2nc(-c3cccnc3)cs2)cc1,-3%
CCc1ccc(N2CC(C(=O)Nc3ccc(S(=O)(=O)N4CCOCC4)cc3)CC2=O)cc1 (configuration not stated),-2%
O=C1C(=C2CCc3ccccc32)Cc2ccccc21,5%
COc1ccc2c(c1)CCc1c(C(=O)Nc3c(C)nn(Cc4c(Cl)cccc4Cl)c3C)noc1-2,7%
CN1C(=O)N(C)C(NC(=O)Nc2ccccc2)C1NC(=O)Nc1ccccc1 (configuration not stated),-7%
C#CCOC(=O)c1cc(Cl)c(=O)n(Cc2ccc(Cl)cc2Cl)c1,-20%
CCOC(=O)c1nnn(CC(=O)NC(=O)Nc2cccc(CC)c2)c1C(=O)OCC,-4%&0%
CCOc1ccccc1C1NC(=O)NC(C)=C1C(=O)OCc1ccco1 (configuration not stated),-2%
N=c1n(CCN2CCCCC2)c2ccccc2n1CC(O)COc1ccc(Cl)cc1Cl (configuration not stated),0%
CCOC(=O)c1[nH]c(C)c(/C=N/O)c1C,15%
COc1ccc(CN2CCN(C(=O)CC(C)C)CC2)c2ccccc12,-2%
Cc1ccccc1C1c2[nH]c3ccccc3c2C[C@H]2C(=O)N(C3CC3)CC(=O)N12 (some centres not stated),5%
COCCCn1c(=O)c2sccc2n2c(CCCC(=O)NCC3CCCO3)nnc12 (configuration not stated),-3%
Cc1ccc(C2CC2/C(=N/O)c2ccc(F)cc2)cc1 (configuration not stated),5%
Cc1ccc(OC(C)C(=O)N(C)c2ccccc2)c([N+](=O)[O-])n1 (configuration not stated),2%
CSC1=N/C(=C\c2cccnc2)C(=O)N1c1ccccc1,-7%
C=CCn1c(=S)[nH]c2scc(-c3ccco3)c2c1=O,?
Cc1ccc(CNc2cnccn2)s1,-8%
O=C(OCc1ccccc1F)c1cc([N+](=O)[O-])ccc1N1CCOCC1,-8%
COc1ccc(Cn2nnnc2C(c2cccs2)N2CCSCC2)cc1 (configuration not stated),-2%
# (list continues)
SMILES,VDR inhibitor
O=S(=O)(N/N=C\c1cn(-c2ccccc2)nc1-c1ccccc1)c1ccccc1,-11%
Cc1cc(CC(=O)O)c2oc(-c3ccoc3)cc(=O)c2c1,-4%
N#Cc1c(SCC(N)=O)nc2c(c1-c1ccc(O)cc1)CCCC2,-8%
O=C(COc1cccc(Br)c1)N/N=C1\CCCc2ccccc21,-5%
O=C(O)CN1C(=O)SC(Nc2ccccc2C(=O)O)C1=O (configuration not stated),-8%

# An excerpt, so the mix of outcomes need not match the whole.
